STK33 kinase inh: inhibitors of human STK33 kinase; Q9BYT3; purified STK33, MBP phosphorylation, ADP-Glo luminescence; inhibition, % at 10 µM; actives 0.073% (n = 320,000); AID 2661;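 active = inhibition at or above 25%, using the most active replicate where run in duplicate; inactive = inhibition below 25%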
Target sequence (Q9BYT3 whole entry, looked up): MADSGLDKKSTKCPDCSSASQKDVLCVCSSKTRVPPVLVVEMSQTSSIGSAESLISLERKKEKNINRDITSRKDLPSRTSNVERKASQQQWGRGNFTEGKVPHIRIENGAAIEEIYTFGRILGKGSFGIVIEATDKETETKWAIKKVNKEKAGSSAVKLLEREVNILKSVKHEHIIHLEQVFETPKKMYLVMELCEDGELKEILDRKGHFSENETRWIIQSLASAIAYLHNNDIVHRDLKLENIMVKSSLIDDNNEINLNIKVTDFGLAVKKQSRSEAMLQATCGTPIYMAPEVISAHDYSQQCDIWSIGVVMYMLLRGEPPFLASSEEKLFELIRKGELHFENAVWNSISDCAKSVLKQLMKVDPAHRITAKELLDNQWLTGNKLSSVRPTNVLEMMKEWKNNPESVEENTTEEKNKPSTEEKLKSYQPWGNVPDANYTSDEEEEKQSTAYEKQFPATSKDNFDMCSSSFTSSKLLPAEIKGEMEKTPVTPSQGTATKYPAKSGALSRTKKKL
Kir21 inh: blocks the mouse Kir2.1 inward-rectifier potassium channel | HEK293-Kir2.1, FluxOR thallium flux fluorescence; hits give low values | AID 1672 | actives 0.85% (n = 310,000) | B-score at 10 µM;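 active = fluorescence ratio B-score at or below minus 3 SD of library scores, with starting-brightness B-score within 2 SD, cut at about -4.2 in these data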;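 note: channel flux triggered by added potassium and thallium sulfate stimulus; B-score of peak minus minimum fluorescence over baseline after thallium stimulus; more negative B-score means stronger Kir2.1 block with less thallium influx; some compounds called inactive have numbers as strong as hits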
Target sequence (P35561 whole entry, looked up): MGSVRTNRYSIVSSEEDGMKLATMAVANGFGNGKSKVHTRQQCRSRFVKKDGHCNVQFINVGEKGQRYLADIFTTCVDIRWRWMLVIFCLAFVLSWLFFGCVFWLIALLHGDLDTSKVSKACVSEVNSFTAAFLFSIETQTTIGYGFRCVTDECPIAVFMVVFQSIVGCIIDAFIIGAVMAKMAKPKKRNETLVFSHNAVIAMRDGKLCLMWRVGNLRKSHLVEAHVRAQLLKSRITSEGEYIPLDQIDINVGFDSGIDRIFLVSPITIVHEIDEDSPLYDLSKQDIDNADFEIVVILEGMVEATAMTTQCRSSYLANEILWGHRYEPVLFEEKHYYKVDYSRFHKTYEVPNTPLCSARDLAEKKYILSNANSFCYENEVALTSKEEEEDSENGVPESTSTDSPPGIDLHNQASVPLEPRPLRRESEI
* marks the source's active call; other numbers are inactive results; . = not tested or not shown.

Fields: STK33 kinase inh	Kir21 inh
> COc1ccc(NC(=O)CSc2nnc(-c3ccccc3)n2Cc2ccco2)c(OC)c1
→ -0.8	-2.6
> COc1ccc(-n2c(CN3CCN(c4ccccc4OC)CC3)nc3ccc([N+](=O)[O-])cc3c2=O)c(OC)c1
→ .	-1.3
> CCCCOC(=O)Nc1nnc(CCc2ccccc2)s1
→ 0.0	-0.07
> CCOc1ccc(N(CC(=O)NC2CCCCCC2)S(=O)(=O)c2c(C)[nH]c(=O)[nH]c2=O)cc1
→ -1.3	0.43
> Nc1cc2ccncc2c2ccccc12
→ 19	0.51
> O=C(CSc1nc(=O)n2ccccc2n1)Nc1cccc2ccccc12
→ -1.2	2.1
> COc1ccccc1N(C(=O)c1ccco1)C(C(=O)NC1CCCC1)c1cccnc1 (configuration not stated)
→ -1.3	-0.18
> COC(=O)c1ccc(C2C(Oc3ccccc3)C(=O)N2CCc2ccc(OC)c(OC)c2)cc1 (configuration not stated)
→ -0.3	-0.5
> Oc1ccc2ccccc2c1CNc1cnc2ccccc2c1
→ -2.2	-0.1
> O=C(OCc1nnc(-c2ccccc2)o1)c1cccnc1Cl
→ -0.9	0.06
> CCOc1ccc(NC(=O)Cn2ncc3ccccc32)cc1
→ 0.1	0.83
> Cc1ccc(NC(=O)c2ccccc2F)nc1
→ 0.1	0.7
> NC(=O)c1c(NC(=O)c2cccs2)sc2c1CCCCCC2
→ 0.0	0.07
> Cc1ccc(C(C(=O)NC2CCCCC2)N2CCOCC2)cc1 (configuration not stated)
→ -1.4	-0.14
> COc1ccccc1N1CCN(C(=O)C(=O)c2c(C)n(C)c3ccccc23)CC1
→ -0.3	0.25
> CCc1nc2ccc(C(=O)Nc3cccc(C(C)=O)c3)cc2nc1CC
→ -0.5	-0.74
> Fc1ccc(NC(=S)N2CCN(C/C=C/c3ccccc3)CC2)c(F)c1
→ 0.2	0.17
> O=C(Nc1nc2ccc(SC(F)F)cc2s1)c1ccc2c(c1)S(=O)(=O)c1ccccc1C2=O
→ -1.7	2.1
> O=C(c1cccc(Cl)c1)N1CCCC(C(=O)N2CCN(c3ccccc3)CC2)C1 (configuration not stated)
→ -1.5	0.75
> C/C(=N\NC(=O)c1ccc(F)cc1)c1cccc(NC(=O)c2ccco2)c1
→ -3.6	-0.56
> COc1ccccc1N(/N=C1\Sc2ccccc2C1=O)C(C)=O
→ -1.3	0.88
> CCCCNC(=O)NC1C(NC(=O)NCCCC)N(C)C(=O)N1C (configuration not stated)
→ -0.7	-0.01
> C/C(=N\NC(=O)CSCc1ccccc1Br)c1cccc([N+](=O)[O-])c1
→ -1.4	0.72
> CC(=O)Nc1nc2cc3c(cc2s1)OCO3
→ 1.4	-0.18
> Cc1ccc(-c2sc(C(=O)NN)c(C)c2C#N)cc1
→ -0.6	0.23
> COc1cc(-c2[nH]ncc2CN2CCSCC2)cc(OC)c1OC
→ -0.1	-1.8
> Cc1cc(C)c(OCCOCCN2CCN(C)CC2)c(Cl)c1
→ 0.1	0.82
> CCOC(=O)Nc1ccc(S(=O)(=O)Nc2cc(C)on2)cc1
→ 0.4	0.74
> CC(C)n1c(=N)c(C(=O)NCCc2ccccc2)cc2c(=O)n3ccccc3nc21
→ -2.0	0.45
> CCCC(=O)NC(=S)Nc1sc2c(c1C(N)=O)CCC2
→ -1.1	-0.34
> CCCCCc1ccc(-c2cn(CC3CCCCC3)nn2)cc1
→ 2.2	0.08
> COc1ccc(OC)c(-c2cc(C(=O)Nc3ccc(F)cc3F)no2)c1
→ -2.0	1.5
> CC1Cc2ccccc2N1C(=O)Cn1nc(C(=O)O)c2ccccc2c1=O (configuration not stated)
→ -0.8	0.47
> COC(=O)CN1C(=O)[C@@H]2[C@H](C1=O)[C@@H]1CC(C(=O)OC)=C[C@@H](C(=O)OC)[C@@H]3C1=C(C(=O)[C@]3(C)NC(=O)c1ccccc1)[C@@H]2C
→ -2.2	0.4
> O=C(O)c1cc(NC(=O)c2ccc([N+](=O)[O-])cc2)cc(NC(=O)c2ccc([N+](=O)[O-])cc2)c1
→ 0.1	1.6
> CC1(C(=O)NC2CCCCCC2)CCC(=O)N1Cc1ccc2c(c1)OCO2 (configuration not stated)
→ -1.8	-0.24
> CCC1(C)Cc2c(sc3nnn(CC(=O)Nc4ccccc4C)c(=O)c23)CO1 (configuration not stated)
→ -0.3	-1
> COc1ccc(Oc2cccc(Cl)c2CNC(=O)CCCC(=O)O)cc1
→ -2.3	-0.06
> c1ccc(CC2CCN(Cc3nc(-c4ccccc4)no3)CC2)cc1
→ -1.0	-1.4
> COc1ccccc1N1CCN(C(=O)c2sc3ncn(CC(=O)N4CCC(C)CC4)c(=O)c3c2C)CC1
→ -0.8	0.11
> COc1cc(OC)c2ccc(=O)oc2c1C(CC(=O)N1CCN(c2ccccc2)CC1)c1ccc2c(c1)OCO2 (configuration not stated)
→ -0.8	0.43
> COc1cccc(NC(=O)CCc2nc(-c3cccs3)no2)c1
→ 1.9	-0.68
> CCOc1ccc(/C=N/NC(=O)Cc2csc(Nc3cccc(C(F)(F)F)c3)n2)cc1
→ -1.2	0.98
> C#CCn1c(=O)cc(C)c2ccccc21
→ -1.4	2
> COc1ccc(CNc2cccc3[nH]c(C(F)(F)F)nc23)cc1
→ 0.2	-0.12
> CC(=O)c1cccc(NC(=O)CCc2nnc3ccc(NCc4ccco4)nn23)c1
→ -0.4	0.27
> COc1ccccc1NS(=O)(=O)c1cc(NC(=O)CCC2CCCC2)ccc1N1CCOCC1
→ -0.1	2
> O=C(CCN1CCc2ccccc2C1)Nc1ccccc1
→ .	-1.4
> Cc1cc(N)n(-c2ccc3ccccc3c2)n1
→ 0.7	0.04
> Cc1ccc(SC[C@H](c2ccccc2)N2CCN(C)CCC2=O)cc1
→ .	-1.8
> COCCOC(=O)C1=C(C)NC(=O)NC1c1ccc(-c2ccc(F)cc2)o1 (configuration not stated)
→ -0.9	-2
> COC(=O)CCN(C(C)=O)c1ccc(N)cc1
→ -0.9	-1.4
> CCOC(=O)C1CCN(Cc2cn[nH]c2-c2ccc(C)cc2)CC1
→ -2.3	-0.17
> COc1ccc(-c2nnc(NC(=O)CSc3ccccc3)s2)cc1OC
→ -1.1	-2.6
> COc1ccc(NC(=O)CCC(=O)OCc2ccc(C(=O)Oc3ccc(Cl)cc3)cc2)cc1
→ -1.1	2.2
> COc1ccc(-c2nnc3c4ccccc4c(C)nn23)cc1
→ -0.3	-1.8
> N/C(=N\OC(=O)CCC1CCCC1)c1ccc(Cl)cc1
→ -0.7	0.29
> Cc1ccccc1-c1noc(-c2ccccc2C(=O)NCc2ccco2)n1
→ -0.1	-0.77
> CN(C)/C=C/C(=O)c1ccc(Cl)cc1
→ 0.1	0.72
> O=C(Nc1cccnc1)c1c(F)c(F)c(F)c(F)c1F
→ 1.6	2.1

The list goes on:
Fields: STK33 kinase inh	Kir21 inh
> O=C1/C(=C/c2ccc(Cl)cc2)SC(=S)N1CCC(=O)N1CCCCC1CCO (configuration not stated)
→ -1.2	-0.28
> CCn1cc(C(=O)O)c(=O)c2cnc(N3CCN(C(=S)NC(=O)c4ccccc4)CC3)nc21
→ 1.4	-0.04
> COc1ccc(S(=O)(=O)n2cccc2)c(OC)c1
→ 1.7	-1.3
> CN=C1S/C(=C\c2ccc(OCC(=O)OC)c(OC)c2)C(=O)N1C
→ 1.4	-0.04
> CCOC(=O)CS(=O)(=O)c1nc(-c2ccc(F)cc2)cc(C(F)(F)F)n1
→ 3.7	-4.5*
> Cc1ccccc1S(=O)(=O)Oc1ccccc1C(=O)Oc1ccccc1
→ -1.1	-2.1
> Fc1ccc(-[n+]2nc(Nc3ccccc3)sc2-c2c(Cl)cccc2Cl)cc1
→ 0.5	-2
> CCN(CC)S(=O)(=O)c1ccc(Cl)c(C(=O)NC(C)C(c2cccs2)N2CCCC2)c1 (configuration not stated)
→ 0.3	0.96
> ONC(=Nc1ccc(Cl)cc1)c1ccc(Cl)cc1
→ 6.0	1.3
> CCCN1CCC(=O)N([C@H](CSc2ccc(C)cc2)Cc2ccccc2)CC1
→ .	-1.3
> CCN=C(NCC)SC1CC(=O)N(c2ccc(F)cc2)C1=O (configuration not stated)
→ -0.9	-0.66
> CCCCn1nnnc1SCC(=O)Nc1ccc2c(c1)OCO2
→ -1.9	1.3
> COC(=O)CC1=NN(c2nc(C)cc(C)n2)C(=O)C1
→ 0.1	-2.5
> CC1CCC(C(C)C)C(OCC(O)CNC(C)C)C1 (configuration not stated)
→ -1.8	-0.29
> CCS(=O)(=O)N1CCC(C(=O)NCCc2ccccc2)CC1
→ -2.1	-1.4
> CCC(=O)N1N=C(c2ccc(NS(C)(=O)=O)cc2)CC1c1ccc(C)cc1 (configuration not stated)
→ -2.2	-0.01
> Cc1ccc(NC(=O)Cn2cc(S(=O)(=O)c3ccc(C)cc3)c(=O)c3cc(F)ccc32)cc1
→ -0.3	0.05
> COc1nn(CC(=O)N2N=C(C)CC2(O)C(F)(F)F)cc1[N+](=O)[O-] (configuration not stated)
→ -4.3	1.1
> CCC(CC)c1nnc(NC(=O)C2CSC3(C)CCC(=O)N23)s1 (configuration not stated)
→ -1.4	1.9
> COCCN(C(C)=O)c1nnc(-c2cnccn2)s1
→ -0.9	0.48
> Cc1cc(=O)oc2c(C)c(OCC(=O)N3CCC(C(=O)O)CC3)ccc12
→ 0.5	0.99
> COc1ccc(OC)c(Nc2ccc(C(=O)O)cc2[N+](=O)[O-])c1
→ -0.1	-1
> COc1cc(/C=C(/C#N)C(=O)Nc2ccc(Cl)cc2)ccc1Oc1nc(Cl)ncc1F
→ -1.7	-0.01
> COC(=O)c1c(NC(=O)CN2C(=O)C(=O)N(CC(C)C)C2=O)sc(C)c1C
→ -1.9	2
> CCN(CC)c1ccc2cc(-c3nc4ccccc4[nH]3)c(=O)oc2c1
→ -0.2	-8.3
> Cc1nnc(NC(=O)CSc2ncnc3scc(-c4ccccc4)c23)s1
→ -1.7	0.03
> CC(NC(=O)COC(=O)CC(c1ccccc1)c1ccccc1)c1ccccc1 (configuration not stated)
→ 10	-0.98
> CCOc1ccc(S(=O)(=O)N2CCCC(C(=O)NC3CCCC3)C2)cc1 (configuration not stated)
→ -1.4	0.67
> C=CC(=O)NN(C)c1ncc(C(F)(F)F)cc1Cl
→ -1.4	-0.67
> COC(=O)c1cc(OC)c(OC)cc1NC(=O)c1ccoc1C
→ .	1.3

In another format: three of the compounds above.
O=C(Nc1cccnc1)c1c(F)c(F)c(F)c(F)c1F
  STK33 kinase inh: 1.6 | Kir21 inh: 2.1

CC(=O)Nc1nc2cc3c(cc2s1)OCO3
  STK33 kinase inh: 1.4 | Kir21 inh: -0.18

N/C(=N\OC(=O)CCC1CCCC1)c1ccc(Cl)cc1
  STK33 kinase inh: -0.7 | Kir21 inh: 0.29

Next results
Fields: STK33 kinase inh	Kir21 inh
> Cc1cc(C(=O)CSc2nnc(-c3ccccc3)n2C)c(C)n1C
→ -1.3	-1.7
> Cn1c2ccc(F)cc2c2nnc(SCCN3CCOCC3)nc21
→ .	-0.4
> COc1ccc(N2CCN(C(=O)c3cn(C4CCCC4)c(=O)c4c3c3ccccc3n4C)CC2)cc1
→ -1.9	0.99
> CCCS(=O)(=O)n1nc(-c2ccc(OC)cc2OC)cc1N
→ 0.3	0.32
> Cc1ccc(NC(=O)CSc2nc3nc(C)c(Br)cc3[nH]2)cc1F
→ -1.6	0.58
> CC1CCC(NC(=O)CSc2nncs2)CC1 (configuration not stated)
→ -2.0	-0.27
> COc1ccccc1C(=O)Nc1ccc(S(=O)(=O)N2CCc3ccccc32)cc1
→ -1.0	0.36
> COCCSc1ccccc1C(=O)N1CCc2ccccc2C1
→ -1.5	1.3
> CNS(=O)(=O)c1cccc(C(=O)OCc2csc(-c3ccccc3)n2)c1
→ -0.2	1.7
> O=C(COc1ccc2ccccc2c1)Nc1ccncc1
→ 7.2	0.6
> O=C(c1cc(C2CC2)nc2ccccc12)N1N=C(C(F)F)CC1(O)C(F)F (configuration not stated)
→ -1.7	-1.4
> COc1ccc(N/N=C(\C#N)C(=N)N2CCCCC2)cc1
→ 1.0	1.9
> Cc1ccc(/C=C/C(=O)O)cc1S(=O)(=O)N1CCCc2ccccc21
→ -4.0	1.1
> O=C(c1ccccc1)N1CCN(C(=O)N2CCOCC2)CC1
→ 0.3	0.78
> CCOc1ncccc1C(=O)Nc1ccc(-c2cn3ccsc3n2)cc1
→ -1.6	-0.75
> CCN1CCN(C(=O)CS(=O)(=O)Cc2nc(-c3ccc(C)cc3)oc2C)CC1
→ 0.8	-0.57
> Cc1c(/C=N/NC(=O)c2ccc(Br)o2)cnn1C
→ 1.1	1.7
> O=C(CSc1nnc(-c2ccc(Br)cc2)o1)Nc1cccc(C(=O)O)c1
→ -1.4	-0.33
> COc1ccc(N(CC(=O)NCCSc2ccc(C)cc2)S(=O)(=O)c2ccccc2)c(OC)c1
→ -0.7	-1.8
> Cc1ccc(OCCNc2cc(N3CCN(CCO)CC3)ccc2[N+](=O)[O-])cc1C
→ 0.2	-1.3
> N#CC(C(=O)NC1CCCCC1)=C1CCCCC1
→ -1.4	-2
> Cc1ccc(COCCN2CCN(S(=O)(=O)c3ccccc3)CCC2=O)cc1
→ -2.6	1.1
> Cc1cccc(/C=N/NC(=O)Cc2cccs2)c1
→ -1.2	0.1
> CCOC(=O)N1CCN(C(=O)CN(c2cccc(C(F)(F)F)c2)S(=O)(=O)c2ccccc2)CC1
→ -0.3	0.05
> COc1ccccc1NC(=O)c1sc2nc3n(c(=O)c2c1C)CCC3
→ 1.0	0.43
> Cn1c(=O)c(=O)n(C)c2cc(N3CCCC3)c(NS(=O)(=O)c3ccc(F)cc3)cc21
→ -1.4	-0.86
> Cc1ccc(N2C(=O)C3C4CC(=O)C(c5ccccc54)C3C2=O)cc1C (configuration not stated)
→ 2.8	0.99

Bioassay records (PubChem BioAssay)

Some of the compounds tested; most or all hits stand in other tables.
